Assay outcomes: PubChem BioAssay, Broad Institute
DUX4 txn inh: blocks DUX4-driven transcriptional activation | 293T-iDUX4 ZSCAN4-Gaussia luciferase reporter, 24 h; stronger effect = lower value | activity change, negative = inhibition, % (test concentration not listed) | 37,000 compounds, 0.8% hits | AID 1224904;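 active = -10% or lower and over 25 points stronger than a control reporter; inconclusive = -10% or lower with a smaller gap; inactive = above -10%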;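 note: 0% = median of neutral control wells and -100% = median of positive control wells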
DUX4 txn inh difference: second read-out of DUX4 txn inh, no call of its own (marks repeat the call); Gaussia minus Italica difference, %; measured here: selective DUX4 reporter inhibition;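 worked out from the two reporters; negative = selective loss of the DUX4 reporter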
DUX4 txn inh control: recorded beside DUX4 txn inh, whose call it bears; activity change, negative = inhibition, %; measured here: Italica tet-on control reporter;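 0 = neutral control and -100 = positive control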
Starred values were filed as active, the others as inactive; ? = inconclusive; / = no result given; & = joins results of further samples. Only part of the results is shown; the hit share may differ from the screen's.

SMILES	DUX4 txn inh	DUX4 txn inh difference	DUX4 txn inh control
CN(C)CC(=O)N1CC2(C1)[C@H](c1ccccc1)[C@H](CO)N2S(C)(=O)=O	1.3	-4.9	6.2
C[C@@H]1CN([C@H](C)CO)C(=O)c2cc(NC(=O)Nc3ccc(C(F)(F)F)cc3)ccc2O[C@@H](C)CCCCO[C@@H]1CN(C)S(=O)(=O)c1ccc(Cl)cc1	2.7	2.7	0.0
N#Cc1ccc(-c2ccc3c(c2)[C@H]2[C@H](CCN2Cc2ccc4c(c2)OCO4)[C@H](CO)N3)cc1	-3.6	-6.9	3.2
O=C(C[C@@H]1C[C@@H]2c3cc(NC(=O)Nc4ccccc4F)ccc3O[C@@H]2[C@@H](CO)O1)NCC1CC1	-2.8	-8.3	5.5
O=C(C[C@H]1CC[C@H]2[C@@H](COC[C@@H](O)CN2C(=O)Cc2ccccc2)O1)NC1CCCC1	14.6	4.7	9.9
CCC(=O)N1C[C@H](C)[C@@H](OC)CN(C)C(=O)c2cc(NC(=O)Nc3ccc(Cl)cc3)ccc2OC[C@@H]1C	-5.8	-0.2	-5.6
COc1ccccc1NC(=O)N1C[C@@H]2N[C@H](C1)C2c1ccc(-c2ccc(C(=O)N(C)C)cc2)cc1 (stereo partly specified)	11.9&20.2	-9.1&12.7	21.0&7.5
Cc1ccc(S(=O)(=O)N(C)C[C@H]2Oc3ccc(NC(=O)Nc4ccc(C(F)(F)F)cc4)cc3CC(=O)N([C@@H](C)CO)C[C@H]2C)cc1	-0.4	-2.1	1.6
C[C@H](CO)N1C[C@H](C)[C@@H](CN(C)Cc2cccc(C(=O)O)c2)Oc2ncc(C#CCN(C)C)cc2C1=O	-1.5	-0.2	-1.3
O=C(C[C@H]1C[C@H]2c3cc(NC(=O)Cc4ccncc4)ccc3O[C@H]2[C@@H](CO)O1)NCCc1ccccc1	-8.0	-5.0	-3.0
O=C(NCCCN1CCOCC1)[C@@H]1N[C@@H]2c3ccc(C4=CCCC4)c(=O)n3C[C@@H]2[C@H]1CO	-0.1	-4.5	4.3
O=C(NC1CCCC1)N1CC(=O)N2[C@H](CO)[C@H](c3ccc(-c4cccnc4)cc3)[C@H]2C1	14.1	1.4	12.8
N#C[C@@H]1[C@@H](c2ccccc2C2=CCCCC2)[C@@H](CO)N1C(=O)c1cccc(F)c1	-5.8	-16.0	10.2
CC=Cc1ccc2n(c1=O)C[C@H]1[C@H](CO)[C@@H](C(=O)NCc3ccccc3)[C@@H]2N1S(C)(=O)=O (mixture of isomers)	-9.7	-7.2	-2.5
CN1CCN(C(=O)C[C@H]2CC[C@H]3[C@H](COc4ccc(NC(=O)c5cccs5)cc4C(=O)N3C)O2)CC1	-1.3	-5.2	3.9
C[C@@H]1CCCCO[C@@H](CN(C)CC2CCCCC2)[C@@H](C)CN([C@@H](C)CO)C(=O)c2cc(NC(=O)C3CCCCC3)ccc2O1	3.4	1.9	1.5
CCCNC(=O)N1C[C@H](C)[C@H](OC)CN(C)C(=O)c2ccc(NC(=O)C3CCC3)cc2OC[C@H]1C	6.0	3.3	2.8
COCC(=O)N1[C@@H]2c3cccc(=O)n3C[C@@H]2[C@@H](CO)[C@@H]1C(=O)NCc1ccccc1Cl	-9.0	-4.0	-5.0
COC(=O)C[C@@H]1CC[C@@H]2[C@H](COc3ccc(NC(=O)Nc4cc(C)cc(C)c4)cc3C(=O)N2C)O1	-2.1	-2.7	0.6
COCC(=O)N1CC2(C1)[C@@H](c1ccc(-c3ccccc3)cc1)[C@H](CO)N2C(C)=O	10.1	10.2	-0.2
C[C@@H]1CN([C@H](C)CO)C(=O)c2cccc(NC(=O)Nc3ccc(F)cc3)c2O[C@H]1CN(C)CC1CCCCC1	6.1	0.9	5.2
COC(=O)N(C)C[C@@H]1OCc2ccccc2-c2ccccc2C(=O)N([C@@H](C)CO)C[C@H]1C	20.1	15.8	4.4
COc1ccc(S(=O)(=O)Nc2cccc3c2O[C@@H](CN(C)C(=O)Nc2cccc4ccccc24)[C@@H](C)CN([C@@H](C)CO)C3=O)cc1	0.1	-1.9	2.0
O=C(c1cccc(F)c1)N1CCCCN2[C@H](CO)[C@H](c3ccc(-c4cncnc4)cc3)[C@H]2C1	-1.7	-7.6	5.9
C/C=C/c1ccc(C2[C@H]3CNC[C@@H]2N3S(=O)(=O)Cc2ccccc2)cc1 (stereo partly specified)	23.8	8.2	15.6
O=C(Cc1ccccc1)N1CC2(C1)[C@H](c1ccccc1)[C@@H](CO)N2C(=O)c1cccnc1	5.8	7.4	-1.6
COCC#Cc1ccc([C@H]2[C@@H](CO)N3C(=O)CN(C(=O)Nc4ccc(F)cc4)C[C@@H]23)cc1	9.4	15.3	-5.9
CC=Cc1ccc2n(c1=O)C[C@H]1[C@H](CO)[C@@H](C(=O)NCCC)[C@@H]2N1Cc1ccccc1OC (mixture of isomers)	-1.4	-9.2	7.8
Cc1ccc(S(=O)(=O)N2C[C@@H]3N[C@H](C2)[C@@H]3c2ccc(-c3cccc(C)c3)cc2)cc1	?	/	/
CO[C@H]1CN(C)C(=O)c2cccc(C#N)c2OC[C@@H]2O[C@@H](CC[C@H]2OC)CCN(C)C(=O)[C@@H]1C	1.0	-2.3	3.3
COc1ccccc1-c1ccc2n(c1=O)C[C@H]1[C@H](CO)[C@@H](C(=O)NCc3ccccc3Cl)N[C@@H]21	0.9	-2.1	3.0
COc1ccc(-c2ccc([C@H]3[C@@H](C#N)N(C(=O)NC4CCCCC4)[C@@H]3CO)cc2)cc1	-0.4	1.6	-2.0
CCNC(=O)[C@H]1N[C@H]2c3ccc(-c4cccc(C(=O)N(C)C)c4)c(=O)n3C[C@H]2[C@@H]1CO	3.1	1.3	1.7
C[C@H]1CN([C@@H](C)CO)C(=O)CCCn2nncc2CO[C@H]1CN(C)C(=O)Nc1cccc(Oc2ccccn2)c1	2.7	3.8	-1.1
COC(=O)C[C@H]1CC[C@@H]2[C@H](COc3ccc(NC(=O)c4cnccn4)cc3C(=O)N2C)O1	-3.5	-3.0	-0.4
CCC(=O)Nc1ccc2c(c1)C(=O)N(C)C[C@@H](OC)[C@@H](C)CN(C(=O)c1ccc(F)cc1)[C@@H](C)CO2	6.5	4.5	2.0
CO[C@H]1CC[C@@H]2CCN(C)C(=O)CCCN(C)C(=O)c3cc(C#N)ccc3OC[C@H]1O2	-2.1	-6.2	4.2
Cn1cnc(S(=O)(=O)N2CCCCN3[C@H](C2)[C@H](c2ccc(-c4cccc(F)c4)cc2)[C@@H]3CO)c1	9.2	4.1	5.1
Cn1cnc(S(=O)(=O)N[C@@H]2C=C[C@H](CC(=O)N3CCN(c4ccccc4)CC3)O[C@H]2CO)c1	0.6	1.6	-1.0
CCN1[C@H](C(=O)OC)[C@@H](CO)[C@@H]2Cn3c(ccc(-c4cccc(C(=O)N(C)C)c4)c3=O)[C@@H]21	3.6	-2.1	5.7

Compound profiles, from the list above:
CCC(=O)Nc1ccc2c(c1)C(=O)N(C)C[C@@H](OC)[C@@H](C)CN(C(=O)c1ccc(F)cc1)[C@@H](C)CO2 as listed: DUX4 txn inh: 6.5; DUX4 txn inh difference: 4.5; DUX4 txn inh control: 2.0
CO[C@H]1CC[C@@H]2CCN(C)C(=O)CCCN(C)C(=O)c3cc(C#N)ccc3OC[C@H]1O2 as listed: DUX4 txn inh: -2.1; DUX4 txn inh difference: -6.2; DUX4 txn inh control: 4.2

Other entries.
SMILES	DUX4 txn inh	DUX4 txn inh difference	DUX4 txn inh control
COc1ccc(C[C@@H]2CCn3cc(nn3)COC[C@@H](C(C)C)NC2=O)cc1	-1.5	-4.1	2.6
O=C(C[C@@H]1CC[C@@H]2[C@H](COC[C@H](O)CN2Cc2ccc3c(c2)OCO3)O1)N1CCCCC1	-2.1	-6.6	4.6
CCCNC(=O)Nc1ccc2c(c1)OC[C@@H](C)N(S(C)(=O)=O)C[C@H](C)[C@H](OC)CN(C)C2=O	1.7	0.1	1.6
COCC#Cc1ccc([C@H]2[C@@H](CO)N3CCCCN(C(=O)Nc4cc(F)ccc4F)C[C@H]23)cc1	-23.2*	-39.1*	15.9*
COc1cccc(CN(C)C[C@@H]2OCc3ccccc3-c3c(n(C)c4ccccc34)C(=O)N([C@@H](C)CO)C[C@@H]2C)c1	?	/	/
COc1ccc(S(=O)(=O)N(C)C[C@H]2OCCCC[C@H](C)Oc3ccc(NC(=O)Cc4ccccc4)cc3C(=O)N([C@H](C)CO)C[C@@H]2C)cc1	-0.3	1.9	-2.1
COCCNC(=O)C[C@@H]1CC[C@H]2[C@@H](COC[C@H](O)CN2Cc2cccc(-c3ccncc3)c2)O1	7.5	10.2	-2.7
CN(C)C(=O)C[C@H]1CC[C@H]2[C@@H](COC[C@H](O)CN2C(=O)C2CCOCC2)O1	3.4	2.5	0.9
O=C(C[C@H]1CC[C@H]2[C@@H](COC[C@H](O)CN2S(=O)(=O)c2cccc(F)c2)O1)Nc1ccccc1	4.2	2.0	2.2
O=C(c1ccc(F)cc1)N1C[C@@H]2N[C@H](C1)C2c1ccc(/C=C/c2ccccc2)cc1 (stereo partly specified)	?	/	/
C[C@H](NC(=O)C[C@@H]1C[C@H]2c3cc(NC(=O)Nc4ccc(C(F)(F)F)cc4)ccc3O[C@H]2[C@H](CO)O1)c1ccccc1	-13.9*	-31.5*	17.6*
COCC(=O)N1CC(=O)N2[C@H](CO)[C@H](c3ccc(Br)cc3)[C@H]2C1	2.0	-1.6	3.5
COc1cccc(-c2ccc3c(c2)[C@@H]2[C@@H](CCN2C(=O)c2ccccn2)[C@H](CO)N3)c1	-6.2	-1.2	-5.1
COc1ccc(C#Cc2ccc3c(c2)[C@@H]2[C@@H](CCN2C(=O)NC(C)C)[C@@H](CO)N3C)cc1	-7.7	-14.1	6.4
COc1ccccc1NC(=O)N[C@@H]1C=C[C@@H](CC(=O)N[C@H](C)c2ccccc2)O[C@@H]1CO	-2.4	-3.0	0.6
O=C(Cc1ccncc1)Nc1ccc2c(c1)[C@H]1C[C@@H](CC(=O)NC3CCCCC3)O[C@@H](CO)[C@H]1O2	7.9	14.8	-6.9
Cc1noc(C)c1NC(=O)N(C)C[C@H]1Oc2ccc(NC(=O)CCN3CCOCC3)cc2CC(=O)N([C@H](C)CO)C[C@@H]1C	-2.2	-0.5	-1.7
CN1CCN(C(=O)C[C@@H]2CC[C@@H]3[C@H](COC[C@H](O)CN3CC3CCCCC3)O2)CC1	7.2	6.4	0.8
O=S(=O)(c1cccc(F)c1)N1CC[C@@H]2[C@H](CO)Nc3ccc(Br)cc3[C@@H]21	10.6	10.4	0.2
C[C@@H]1CN([C@@H](C)CO)C(=O)c2cc(C3=CCCCC3)cnc2O[C@@H]1CN(C)Cc1ccccc1C(=O)O	1.1	-0.9	2.0

The closing 3 entries of the section above come first, to join the parts:
SMILES	DUX4 txn inh	DUX4 txn inh difference	DUX4 txn inh control
CN1CCN(C(=O)C[C@@H]2CC[C@@H]3[C@H](COC[C@H](O)CN3CC3CCCCC3)O2)CC1	7.2	6.4	0.8
O=S(=O)(c1cccc(F)c1)N1CC[C@@H]2[C@H](CO)Nc3ccc(Br)cc3[C@@H]21	10.6	10.4	0.2
C[C@@H]1CN([C@@H](C)CO)C(=O)c2cc(C3=CCCCC3)cnc2O[C@@H]1CN(C)Cc1ccccc1C(=O)O	1.1	-0.9	2.0
COc1ccc(S(=O)(=O)N(C)C[C@@H]2OCCCC[C@H](C)Oc3ccc(NC(=O)Cc4ccccc4)cc3C(=O)N([C@H](C)CO)C[C@H]2C)cc1	-2.9	8.7	-11.6
C[C@@H]1CN([C@H](C)CO)S(=O)(=O)c2ccc(C#C[C@@H](C)O)cc2O[C@H]1CN(C)Cc1ccc(-c2ccccc2)cc1	1.7	-0.2	1.9
CC(C)CN(C[C@H]1N[C@H](CO)[C@@H]1c1ccccc1)C(=O)CN(C)C	-1.1	-3.0	1.8
CCCNC(=O)N1C[C@H]2[C@@H](c3ccccc31)[C@@H](CO)N2C(=O)Nc1ccccc1F	-3.1	-4.4	1.4
Cc1ccccc1S(=O)(=O)N1[C@@H]2c3cccc(=O)n3C[C@H]1[C@H](CO)[C@H]2C(=O)N1CCOCC1	0.8	-2.8	3.6
CC=Cc1ccc2n(c1=O)C[C@@H]1[C@@H](CO)[C@H](C(=O)NCCC)N(Cc3cccc(F)c3)[C@H]21 (mixture of isomers)	-2.0	-2.4	0.4
O=C(c1ccccc1)N1C[C@@H]2[C@H](c3ccccc31)[C@@H](CO)N2C(=O)CN1CCOCC1	2.8	-5.2	8.0
COc1ccc(S(=O)(=O)Nc2ccc3c(c2)C(=O)N([C@@H](C)CO)C[C@@H](C)[C@H](CN(C)C(=O)c2ccncc2)OCCCC[C@@H](C)O3)cc1	0.3	4.6	-4.3
CCCC#Cc1ccc([C@H]2[C@H](CO)N3C(=O)CN(C(=O)c4ccccn4)C[C@@H]23)cc1	-0.5	-1.4	0.9
C[C@@H]1CN([C@@H](C)CO)C(=O)CCCn2nncc2CO[C@H]1CN(C)C(=O)OCc1ccccc1	-4.9	-7.5	2.6
CCCNC(=O)[C@H]1[C@H](CO)[C@H]2Cn3c(ccc(C4=CCCC4)c3=O)[C@H]2N1C(=O)CC1CC1	-0.1	-0.6	0.5
CN1[C@H](CO)[C@@H]2c3ccccc3N(C(=O)Nc3cc(F)ccc3F)C[C@@H]21	-1.8	-0.8	-1.0
CC(C)CC#Cc1ccc([C@H]2[C@H](CO)N3C(=O)CN(S(C)(=O)=O)C[C@@H]23)cc1	6.1	0.8	5.3
CCCNC(=O)N1CC(=O)N2[C@H](CO)[C@H](c3ccc(-c4ccc(F)cc4)cc3)[C@H]2C1	5.4	8.1	-2.7
O=C(C[C@@H]1C[C@@H]2c3cc(NC(=O)CC4CC4)ccc3O[C@@H]2[C@H](CO)O1)NCc1cccc(F)c1	4.1	-1.4	5.5
